Source: PubChem
VDR inhibitor: blocks the human vitamin D receptor; P11473; 400,000 tested, 0.93% active; Potency, µM, for inactives: max response, negative = inhibition, most hits filed as inhibitors; AID 504847; VDR-SRC2-3 peptide fluorescence polarization, 2 h; active = well fitted inhibition curve with a large enough effect; inconclusive = small, poorly fitted or top-dose-only effect, or another doubt; inactive = no such curve, though single readings can be large or run the other way; note: series mostly up to about 120 µM
Target sequence (P11473 whole entry, looked up): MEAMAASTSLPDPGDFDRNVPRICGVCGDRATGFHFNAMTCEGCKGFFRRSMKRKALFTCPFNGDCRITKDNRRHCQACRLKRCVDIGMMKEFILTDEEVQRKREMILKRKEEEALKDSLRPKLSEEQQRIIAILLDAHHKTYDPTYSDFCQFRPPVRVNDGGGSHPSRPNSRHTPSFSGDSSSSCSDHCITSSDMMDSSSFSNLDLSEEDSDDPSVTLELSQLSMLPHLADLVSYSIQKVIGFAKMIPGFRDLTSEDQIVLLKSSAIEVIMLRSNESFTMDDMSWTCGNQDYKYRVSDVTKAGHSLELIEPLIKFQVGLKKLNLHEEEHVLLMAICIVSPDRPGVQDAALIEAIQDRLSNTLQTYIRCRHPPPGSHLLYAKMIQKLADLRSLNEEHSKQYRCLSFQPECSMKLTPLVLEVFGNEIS
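VDR–SRC2-3 interaction, FP format. Cmpds 23 nl via pintool, brief spin, 2 h ambient incubation.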
Active calls of the source: *; ? = inconclusive; & = joins results of further samples; [ ] = remark or other dose. % is set by controls: 0 for no effect and ±100 for the full control effect; potency is the fitted concentration of half-maximal effect.

SMILES	VDR inhibitor
COc1cccc(C2C(C(=O)c3sc(C)nc3C)=C(O)C(=O)N2CCN2CCOCC2)c1OC (centres undefined)	-2%
NC(N)=NC1=NC(=O)C(Cc2ccccc2Cl)S1 (centres undefined)	-10%
COc1ccc(NC(=O)CSc2nnc(NC(=O)c3ccccc3C(=O)O)s2)cc1	-14%
COC(=O)c1cc(OCC(=O)NC2CCCc3ccccc32)cc(C(=O)OC)c1 (centres undefined)	5%
CC(=O)NCCC(=O)Nc1nc(-c2ccc3c(c2)OCCO3)cs1	7%
CC1CC(C)CN(C(=O)c2ccc(CSc3nc4ccncc4[nH]3)cc2)C1 (centres undefined)	-10%
Cc1cc(C)c(C(=O)COC(=O)C2CCN(c3ccc(C(F)(F)F)cn3)CC2)c(C)c1	2%
COc1ccc2[nH]cc(CCNc3ncncc3-c3ccc4c(c3)OCO4)c2c1	-18%
O=C(NCC(=O)N1CCN(Cc2ccc3c(c2)OCO3)CC1)c1ccccc1F	-16%
CC(NC(=O)NC(=O)c1ccc(Cl)cc1)c1ccccc1 (centres undefined)	18%
O=C(NC1=NCCS1)C1COc2ccccc2O1 (centres undefined)	-9%
CN1C(=O)/C(=C/c2ccccc2F)Sc2ccc(C(=O)N3CCCC3)cc21	-8%
O=C(CCNC(=O)c1ccccc1Cl)Nc1nccs1	11%
Cc1ccc(CSc2nnc(-c3ccccn3)n2C)cc1	-3%
COc1ccc(CCNCC(=O)Nc2ccc(C)c(Br)c2)cc1OC	1%
CCn1c(CNC(=O)Cc2ccc(OC)cc2)nnc1SCC(=O)Nc1ccc(C(=O)O)cc1	0%
CCOc1ccc(S(=O)(=O)N2CCCC(C(=O)NC3CC3)C2)cc1Cl (centres undefined)	-4%
CN(CC(=O)Nc1ccc(Cl)c(C(F)(F)F)c1)C(=O)c1cc(=O)c2ccccc2o1	-3%
NC(=O)c1ccc(-n2nnnc2Oc2ccccc2C(=O)N2CCOCC2)cc1	-7%
CCNC(=O)CN(Cc1ccccc1)S(=O)(=O)c1ccccc1	4%
CCN(CC)c1ccc(/C=N/N=C(c2ccccc2)c2ccccc2)c(O)c1	5%
Cc1c(CCC(=O)N[C@@H](C)C(=O)O)c(=O)oc2cc3oc4c(c3cc12)CCCC4	-2%
O=C(Nc1nnc(CCN2CCCCC2)s1)c1cccc(Cl)c1	8%
COc1ccc(NC(=O)CCC2CCCCC2)cc1S(=O)(=O)N1CCCCC1	2%
O=c1c(-c2cc(F)cc(F)c2)nc2cnc(N3CCNCC3)nc2n1-c1ccccc1	?
CCCCn1c(-c2ccncc2)nc2c1c(=O)[nH]c(=O)n2CC(C)C	32%[activator]
COc1ccc(-c2noc(-c3ccccc3NC(=O)c3cc(OC)c(OC)c(OC)c3)n2)cc1	6%
CCOc1ccc(NC2=NCC(=O)N2CCc2ccccc2)cc1	-4%
CN(C(=O)COC(=O)c1cnc(Cl)c(Cl)c1)C1CCCCC1	-3%
CCCC(c1nnnn1Cc1ccco1)N1CCN(c2ccccc2)CC1 (centres undefined)	-6%
COc1ccc(NC(=O)c2c(NC(=O)COc3ccccc3)sc3c2CCCCC3)cc1	-20%
Cc1c(C(=O)OCC(=O)N(CCC#N)c2ccccc2)oc2c1ccc1ccccc12	16%
CCOC(=O)/C=C1\SCC(=O)N1CC(=O)c1ccc[nH]1	-1%
CCC(C(=O)NCCc1ccccc1OC)n1nc(C)c2c(C)n(-c3ccccc3)nc2c1=O (centres undefined)	-7%
O=C(Cc1cccs1)N1CCN=C1SCc1ccc(Br)cc1	-7%
Nc1cc2c(cc1[N+](=O)[O-])OCO2	-3%
Cc1nn(-c2ccccc2)cc1C(c1c(N)[nH]c(=S)[nH]c1=O)c1c(N)[nH]c(=S)[nH]c1=O	10%
Cc1cc(OCC(=O)Nc2cc(-c3nn4c(C)nnc4s3)ccc2C)ccc1Cl	1%
CC(=O)c1cccc(NC(=O)Cc2noc3ccccc23)c1	0%
O=C(C1CCN(S(=O)(=O)c2ccc(Cl)cc2)CC1)N1CCC1	-5%
COc1ccc(C(=O)OCc2cc(=O)n3c(C)csc3n2)cc1F	6%
C=C(C)CNC(=S)N/N=C\c1ccc2c(c1)OCO2	-14%
CCOc1ccc(C2c3[nH]c4ccccc4c3C[C@H]3C(=O)N(C4CC4)CC(=O)N23)cc1OC (some centres undefined)	-1%
CCN(C(=O)COC(=O)c1ccccc1NCCO)C1CCS(=O)(=O)C1 (centres undefined)	1%
O=C(CCN1C(=O)c2ccccc2S1(=O)=O)N1CCN(c2ccc(F)cc2)CC1	11%
O=C(OCC(=O)c1ccc(Cl)cc1Cl)c1ccccn1	-16%
Cc1ccc(S(=O)(=O)c2c(N)n(NC(=O)C3CC3)c3nc4ccccc4nc23)cc1	-7%
COc1ccc(N(CC(=O)Nc2c(C)n(C)n(-c3ccccc3)c2=O)S(=O)(=O)c2ccc(C)cc2)cc1OC	10%
COc1ccc(C2=NO[C@@H]3[C@@H]4C[C@@H]([C@H]5C(=O)N(C)C(=O)[C@@H]45)[C@H]23)cc1	-16%
Cc1ccc(S(=O)(=O)N2CCCCC2)cc1NS(=O)(=O)c1cccc(C(=O)O)c1	-19%

Single entries from the results shown.
Under VDR inhibitor, O=C(CCN1C(=O)c2ccccc2S1(=O)=O)N1CCN(c2ccc(F)cc2)CC1 is listed with 11%
Under VDR inhibitor, Cc1ccc(S(=O)(=O)N2CCCCC2)cc1NS(=O)(=O)c1cccc(C(=O)O)c1 is listed with -19%

Additional structures follow:
SMILES	VDR inhibitor
CCOC(=O)N1CCC(NC(=O)CSCc2nc(-c3ccccc3Cl)oc2C)CC1	-5%
COc1ccc2oc(C(=O)OC(C)C(=O)N(C)c3ccccc3)c(C)c2c1 (centres undefined)	-11%
Cc1ccc(-n2ncc3c(NC4CCCCCC4)ncnc32)cc1Cl	7%
O=C(NN(C(=O)c1ccccc1)c1cccs1)c1ccccc1	?
COC(=O)C(CCSC)NC(=O)c1cn(-c2ccc(OC)cc2)c(=O)c2ccccc12 (centres undefined)	-10%
Oc1c(/C=N/c2ccccn2)sc2ccccc12	2%
CCOc1ccc(C(=O)NCC(=O)NNC(=O)C2COc3ccccc3O2)cc1OCC (centres undefined)	8%
CCOC(=O)C(Cc1ccccc1)NC(=O)Cn1nnc(-c2ccc(C)cc2)n1 (centres undefined)	-13%
COc1ccc(-c2noc(CCCC(=O)NCc3ccco3)n2)cc1OC	-19%
COc1ccccc1OCCCCN1CCC(C)CC1	10%

Brought forward from above: 7 compounds; new compounds follow.
SMILES	VDR inhibitor
O=C(NN(C(=O)c1ccccc1)c1cccs1)c1ccccc1	?
COC(=O)C(CCSC)NC(=O)c1cn(-c2ccc(OC)cc2)c(=O)c2ccccc12 (centres undefined)	-10%
Oc1c(/C=N/c2ccccn2)sc2ccccc12	2%
CCOc1ccc(C(=O)NCC(=O)NNC(=O)C2COc3ccccc3O2)cc1OCC (centres undefined)	8%
CCOC(=O)C(Cc1ccccc1)NC(=O)Cn1nnc(-c2ccc(C)cc2)n1 (centres undefined)	-13%
COc1ccc(-c2noc(CCCC(=O)NCc3ccco3)n2)cc1OC	-19%
COc1ccccc1OCCCCN1CCC(C)CC1	10%
COc1ccc(-c2ccccc2)cc1NC(=O)c1ccncc1	1%
CCOC(=O)Cn1c(=N)n(Cc2ccccc2)c2ccccc21	14%
Cc1cc(NC(=O)COc2coc(CN3CCN(c4ccccc4)CC3)cc2=O)no1	-8%
Cc1nc(Cc2nnc(SCC(=O)N3CCN(c4ccc(O)cc4)CC3)o2)cs1	-1%
Cc1noc(C)c1NC(=O)Nc1cccc2c1O[C@H](CN(C)S(=O)(=O)c1cccs1)[C@@H](C)CN([C@H](C)CO)C2=O	26%
O=C(CN1CCCC1)Nc1ccccc1Sc1ccccc1	-3%
COc1ccc(OC)c(NC(=O)NC2CCCCCCC2)c1	-19%
COc1ccc(C(=O)c2ccc(N3CCOCC3)c([N+](=O)[O-])c2)cc1	7%
CC(=O)c1sccc1NC(=O)c1ccccc1C(=O)O	12%
O=C(Nc1ccc(N2CCOCC2)cc1N1CCOCC1)c1ccc([N+](=O)[O-])cc1	-19%
COc1ccccc1OC(C)C(=O)Nc1ccc2c(c1)n(C)c(=O)n2C (centres undefined)	7%
Cc1cccc(C)c1NC(=O)Nc1csc2c1CCCC2	-4%
COc1ccc(OCc2ccc(C(=O)O)cc2)cc1	0%
O=C(O)CC(=O)NC12CC3CC(CC(C3)C1)C2	5%&12%
Cc1c(Cl)cccc1NC(=O)C1CCN(S(C)(=O)=O)CC1	1%
COc1ccc(NS(=O)(=O)c2cccc(C(=O)NCC3(N4CCOCC4)CCCCC3)c2)cc1	-4%
COC(=O)CC1C(=O)NCCN1C(=S)Nc1ccccc1 (centres undefined)	5%
CCOC(=O)Nc1c(Cl)[nH]c(=O)n(C)c1=O	14%
O=C1CCN(S(=O)(=O)c2ccccc2)C2CCCCC12 (centres undefined)	-20%
CC1=CC=CC2=NC(=O)CC(C)(C(=O)N(CC(=O)NC3CCCC3)Cc3ccc(Cl)cc3)N12 (centres undefined)	25%
Cc1cc(C)cc(CSc2ccc(S(=O)(=O)N3CCCC3)cn2)c1	-9%
Cc1ccc(C(=O)c2c(C)oc3c2C(=O)C(=O)c2ccccc2-3)cc1	3.5µM*
Cc1ccc(NC(=O)CC(=O)c2ccc([N+](=O)[O-])cc2)cc1S(=O)(=O)Nc1cccc(Cl)c1	-5%
CNc1nc(NCCOC23CC4CC(CC(C4)C2)C3)nc(OCC(F)(F)F)n1	-12%
CCn1cc(C(=O)OCC(=O)Nc2ccc(F)cc2F)c(=O)c2ccc(C)nc21	-10%
CCOC(=O)c1cccc(NC(=O)/C=C/c2cccc([N+](=O)[O-])c2)c1	-24%
Cc1ccc(/C=C/C(=O)Nc2cccnc2)o1	-6%
COc1nc(N/N=C/c2ccc(C)cc2)nc(N2CCCCC2)n1	-22%
CCOc1ccccc1NCc1cc(=O)oc2cc(C)ccc12	10%
CCCN(CC(=O)Nc1ccccc1C)C(=O)COc1c(C)cccc1C	2%
Cc1sc(-c2ccncc2)nc1OC(=O)c1ccc(F)cc1F	3%
CCOc1ccc(-c2nnn(CC(=O)NCc3ccc(C)cc3)n2)cc1	-5%
O=C(Cn1cc2c(n1)CCCCC2)NCc1ccccn1	-5%
NC(=O)CC[C@@H]1NC(=O)[C@@H]2CCCN2C(=O)c2cc([N+](=O)[O-])cc(I)c2NCCC[C@@H](C(N)=O)NC1=O	-11%
COc1ccc(NC(=O)Nc2nnc(C)s2)cc1	-5%
C1CCC(Nc2nc3nonc3nc2N2CCSCC2)C1	2%
CCn1c2ccccc2c2cc(NC(=O)c3cccc([N+](=O)[O-])c3C)ccc21	-17%
COc1ccccc1N1CCN(C(=O)CN(C)S(=O)(=O)c2ccc3c(c2)c(=O)n(C)c(=O)n3C)CC1	-1%
Cc1ccc(C)c(NC(=S)N(C)CCO)c1	-14%
COCCNc1cc(N)c([N+](=O)[O-])cc1[N+](=O)[O-]	-21%
COc1cc2[nH]c(=O)c(C(=O)NCCCN3CCOCC3)c(O)c2cc1OC	-11%
O=C1N[C@H](Cc2ccccc2)COC(=O)[C@@H](Cc2ccc(F)cc2)CC/C=C/C[C@H]1CC(=O)N(CCO)Cc1ccccc1	-23%
CC1(c2cccc(Br)c2)NC(=O)N(CC(=O)NC2CCCCC2)C1=O (centres undefined)	5%
CC(=O)Nc1ccc(S(=O)(=O)NC2(C(F)(F)F)NC(=O)N(c3ccccc3F)C2=O)cc1 (centres undefined)	-4%&3%
CCOc1ccc(S(=O)(=O)NCCOC)cc1C	2%
CCCCCn1c(=O)[nH]c2cc(C(=O)NCCN(CC)CC)ccc2c1=O	-4%
Cc1cccc(NC(=O)CSc2nc3ccccc3c(=O)n2C)c1	-1%
CCCCn1c(O)c(/C=C/C=C/C=Nc2ccccc2)sc1=S	?
CSCC[C@H](NC(=O)[C@H](CC(C)C)NC(=O)CNC(=O)[C@H](Cc1ccc(O)cc1)NC(=O)[C@H](Cc1ccccc1)NC(=O)[C@H](CCCCN)NC(=O)[C@H](CC(N)=O)NC(=O)[C@@H]1CCCN1C(=O)[C@H](CC(=O)O)NC(=O)[C@H](C)NC(=O)[C@@H]1CCC(=O)N1)C(N)=O	-3%
Cc1ccc2nc(CSc3nnc(NC(=O)CC(C)C)s3)cc(=O)n2c1	17%

6 entries already listed, ordered by number of heavy atoms, rising:
SMILES	VDR inhibitor
COc1ccccc1OCCCCN1CCC(C)CC1	10%
Cc1cc(C)cc(CSc2ccc(S(=O)(=O)N3CCCC3)cn2)c1	-9%
CCN(CC)c1ccc(/C=N/N=C(c2ccccc2)c2ccccc2)c(O)c1	5%
Cc1ccc(S(=O)(=O)N2CCCCC2)cc1NS(=O)(=O)c1cccc(C(=O)O)c1	-19%
CCOc1ccc(C2c3[nH]c4ccccc4c3C[C@H]3C(=O)N(C4CC4)CC(=O)N23)cc1OC (some centres undefined)	-1%
CCC(C(=O)NCCc1ccccc1OC)n1nc(C)c2c(C)n(-c3ccccc3)nc2c1=O (centres undefined)	-7%

Continued:
SMILES	VDR inhibitor
CCOCCc1nn2c(=O)cc(COC(=O)c3ccccc3NC(=O)c3ccccc3F)nc2s1	12%
CC(C)NC[C@@H](O)COc1ccccc1-n1cccc1	9%
CCC(CO)Nc1ncnc2c1cnn2-c1ccc(C)cc1 (centres undefined)	0%
CCn1c(SCC(=O)NC2CCCCC2)nnc1-c1ccco1	7%
Cc1ccc(NC(=O)COC(=O)c2cccnc2Cl)cc1S(=O)(=O)N1CCCCC1	-7%
COc1ccc(C(=O)C(CCC(CNC(C)(C)C)C(=O)c2ccc(OC)cc2)CNC(C)(C)C)cc1 (centres undefined)	-20%
CC1CC(C)CN(C(=O)COC(=O)CCC(=O)c2cccs2)C1 (centres undefined)	-12%
Cc1cccc(C(=O)N2CCC(n3nnc4cc(F)ccc43)CC2)c1	0%
O=C(NCc1cccs1)c1cc(-c2ccccc2)nn1CC1CC(c2cccc([N+](=O)[O-])c2)=NO1 (centres undefined)	-10%
CC(=O)c1ccccc1OCc1ccc(S(=O)(=O)Cc2ccccc2)cc1	?
COc1ccc(C(=O)NCC(c2ccco2)N(C)C)cc1S(=O)(=O)NCc1ccc(Cl)cc1 (centres undefined)	-4%
O=C(C1CCN(S(=O)(=O)c2cccc3cccnc23)CC1)N1CCCC1	-9%
Cc1nc2ccccc2n1/C(=N\S(=O)(=O)c1ccccc1)c1ccccc1	?

Only part of the results is shown; rates above refer to the full screens.
